VDR inh – blocks the human vitamin D receptor; AID 504847; VDR-SRC2-3 peptide fluorescence polarization, 2 h; Potency, µM, inactives show max response, negative = inhibition, most hits filed as inhibitors; P11473; 0.93% of 400,000 active; active means well fitted inhibition curve with a large enough effect; inconclusive means small, poorly fitted or top-dose-only effect, or another doubt; inactive means no such curve, though single readings can be large or run the other way; further: series mostly up to about 120 µM
Target sequence (P11473 whole entry, looked up): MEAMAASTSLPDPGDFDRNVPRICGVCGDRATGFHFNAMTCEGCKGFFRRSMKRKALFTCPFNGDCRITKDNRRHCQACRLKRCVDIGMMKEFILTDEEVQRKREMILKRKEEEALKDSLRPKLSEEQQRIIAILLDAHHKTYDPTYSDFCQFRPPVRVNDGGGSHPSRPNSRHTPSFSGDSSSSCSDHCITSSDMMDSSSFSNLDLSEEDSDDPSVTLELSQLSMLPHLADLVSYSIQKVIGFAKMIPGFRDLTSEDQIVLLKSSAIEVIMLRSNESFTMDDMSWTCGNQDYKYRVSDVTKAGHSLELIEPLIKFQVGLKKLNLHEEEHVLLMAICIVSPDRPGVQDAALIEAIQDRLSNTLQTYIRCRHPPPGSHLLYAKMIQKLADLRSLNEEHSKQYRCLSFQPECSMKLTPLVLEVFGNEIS
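Signal is fluorescence polarization, reporting how far test compounds block the interaction of VDR with the SRC2-3 coregulator peptide after a 2 h room-temperature incubation.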
An asterisk follows results filed as active; ? = inconclusive; & = joins results of further samples. On the % scale 0 is the no-effect control and ±100 the full control effect; potency means the concentration at half of the fitted maximal effect. Only part of the results is shown; count on the stated rates, not on these rows.

Start of the data: the first six compounds, to show the layout:
VDR inh | canonical_smiles
-6% | O=C(CCCCCN1C(=O)c2cccc3cccc(c23)C1=O)NCCCO
13% | CCOC(=O)Cc1csc(NC(=O)c2cc(OC)cc(OC)c2)n1
-17% | COc1ccc(/C=C(\NC(=O)c2ccccc2)C(=O)NCc2cccnc2)cc1
7% | O=C(NC1CCCCC1)C(c1ccc2ncccc2c1)N(Cc1cccs1)C(=O)c1cccs1 (stereo not given)
7% | CCOC(=O)c1ccccc1NC(=O)Cn1c2ncccc2c(=O)n1-c1ccccc1
-5% | Cc1ccc(COCCN2CCN(S(=O)(=O)c3ccc(C)cc3)CCC2=O)cc1

The listing, from the start:
VDR inh | canonical_smiles
-6% | O=C(CCCCCN1C(=O)c2cccc3cccc(c23)C1=O)NCCCO
13% | CCOC(=O)Cc1csc(NC(=O)c2cc(OC)cc(OC)c2)n1
-17% | COc1ccc(/C=C(\NC(=O)c2ccccc2)C(=O)NCc2cccnc2)cc1
7% | O=C(NC1CCCCC1)C(c1ccc2ncccc2c1)N(Cc1cccs1)C(=O)c1cccs1 (stereo not given)
7% | CCOC(=O)c1ccccc1NC(=O)Cn1c2ncccc2c(=O)n1-c1ccccc1
-5% | Cc1ccc(COCCN2CCN(S(=O)(=O)c3ccc(C)cc3)CCC2=O)cc1
? | O=C(CSc1nncn1-c1ccccc1)Nc1ccc(N2CCOCC2)cc1
-21% | COc1ccc(-c2csc(NC(C)c3nc4cc(Cl)c(Cl)cc4n3CCCO)n2)cc1 (stereo not given)
10% | COC(=O)CN(C#N)c1nc(NCc2ccccc2)nc(OC)n1
-11% | CCc1ccccc1Nc1nn2c(=O)c3ccc(C(=O)NCc4ccccc4OC)cc3nc2s1
-14% | O=C1CC(O)(C(F)F)Oc2ccc3ccccc3c21 (stereo not given)
3% | Cn1c(=O)c2c(SCc3ccccc3)nc(C3CC3)nc2n(C)c1=O
-19% | O=C(COC(=O)c1nc(Cl)ccc1Cl)NC1CCCCCC1
-11% | CSc1ncc(CN2CCc3c([nH]c4ccccc34)C2C(C)(C)C)cn1 (stereo not given)
4% | CCc1ccc(N2CCN(S(=O)(=O)CC34CCC(CC3=O)C4(C)C)CC2)cc1 (stereo not given)
-9% | COc1ccc(N(C(C)C(=O)NCCSCc2cccc(Cl)c2)S(C)(=O)=O)cc1 (stereo not given)
-3% | CCc1cc(C(=O)NNC(=S)NC(C)c2ccccc2)cs1 (stereo not given)
1% | CCN(C(=O)c1cn(C)c(=O)c2cc(OC)c(OC)cc12)c1cc(C)ccc1C
7% | Cc1ccc(N(CC(=O)N/N=C/c2cccs2)S(C)(=O)=O)cc1
4% | O=C(Cn1c(-c2cccs2)cc2ccccc21)N1CCN(c2ccc(Cl)cc2)CC1
-4% | COCCCNC(=O)CC1C[C@H](C(=O)N(C(C)C)C(C)C)[C@@]2(C)c3[nH]c4ccccc4c3CCN2C1=O (stereo not given in full)
-1% | O=C(CSc1nc2ccccc2s1)N/N=C/c1ccco1
1% | CCCCNC(=O)N(O)C1N(/N=C/c2ccco2)C(=S)SC1(C)C (stereo not given)
-26% | O=C(NCc1ccc(F)cc1)c1cccc2c1C(=O)c1ccc(N3CCOCC3)cc1S2(=O)=O
? | CCCCNC(=O)C1(NC(=O)Nc2ccc(C)cc2)CCCCC1
10% | O=C(c1cc(-c2ccc(Cl)c(Cl)c2)on1)N1CCOCC1
-8% | O=c1ccc(-c2ccccc2)nn1Cc1ccccc1
11% | N#C/C(=N\Nc1cc(Cl)cc(Cl)c1)c1nnc2n1CCCCC2
2%&7% | Cc1cc(C(=O)NNCc2ccccc2)no1
16% | CC1(c2ccccc2)NC(=O)N(CC(=O)NC(=O)NCc2ccco2)C1=O (stereo not given)
-14% | COc1ccc(NC(=O)c2cc(-c3ccccc3O)n[nH]2)cc1Cl
-21% | CC(C)C(NC(=O)c1c(F)cccc1F)C(=O)N1CCN(c2ncccn2)CC1 (stereo not given)
8% | O=C(NNc1c(Cl)cncc1Cl)c1cccs1
-4% | C/C(=N\NC(=O)C(c1ccncc1)N1CCOCC1)c1ccc(Br)cc1 (stereo not given)
8% | CC1CCN(c2ccc(C(=O)O)cc2)CC1
4% | Cc1cc(N2CCN(c3cccc(C(F)(F)F)c3)CC2)n2ncnc2n1
? | COc1ccc(/C=C/C(=O)NC(=S)NN2CCCCC2c2cccnc2)cc1 (stereo not given)
1% | N#Cc1ccc(CSc2nc(N)cc(N)n2)cc1
-2% | COc1ccc(C(=O)OCC(=O)c2ccc(Br)s2)c(OC)c1
12% | CC1(NC(=O)c2cccc(S(=O)(=O)N3CCN(c4ccc(F)cc4)CC3)c2)CCS(=O)(=O)C1 (stereo not given)
-5% | COc1ccccc1CCNC(=O)c1ccc(NC(=O)CC2SC(N3CCCCC3)=NC2=O)cc1 (stereo not given)
1% | CCCC(=O)C1=C(O)C(c2cccc(Oc3ccccc3)c2)CCC1=O (stereo not given)
12% | Cc1nc(NC(=O)CSc2nnc(-c3ccncc3)n2C)sc1C
0% | COc1ccc(C2N(C(=O)CN3CCOCC3)CCN2S(=O)(=O)c2ccccc2)cc1 (stereo not given)
-27% | Cc1c2n(c3ccccc13)CCN(C)C2
-6% | CCCCNC(=O)c1ccc2c(c1)C(=O)N(Cc1ccncc1)C2=O
? | COc1cccc(/C=N/N2C(=O)CSC2=S)c1O
-2% | COc1ccccc1-c1nnc(Sc2nc([N+](=O)[O-])nn2C)o1
1% | COc1ccc(C(=O)NC2CCN(C(=O)Nc3ccc(F)cc3)CC2)cc1
-5% | COC(=O)c1ccccc1NC(=O)COC(=O)CO/N=C(\C)c1ccc2c(c1)OCO2

Next part
VDR inh | canonical_smiles
1% | COc1ccc(NC(=O)c2ccccc2NC(=O)c2cccs2)cc1
-4% | Cn1cnnc1SCc1ccccc1
-2% | O=C(/C=C/c1ccccc1Cl)NCc1ccccc1
-18% | COc1ccc(C2=NS(=O)(=O)N(C)C(C(=O)N3CCCCC3C)=C2)cc1 (stereo not given)
-9% | CCc1noc(C)c1C(=O)N1CCCC(CCC(=O)NCc2ccc(F)c(F)c2)C1 (stereo not given)
-12% | Cc1cc(C)c2[nH]c(=O)c(CN(Cc3ccccc3)C(=S)NCCCN(C)C)cc2c1
-11% | COC(=O)c1ccc(N/C(C)=C/C(=O)c2ccc(C)o2)cc1
-4% | CC(=O)Cn1ncc(N(C)Cc2ccccc2)c(Cl)c1=O
-9% | O=C(COc1ccc(Cl)cc1)NCCNc1ccc([N+](=O)[O-])cc1
17% | CC(C)NC(=O)Nc1cccc2c1O[C@H](CN(C)S(C)(=O)=O)[C@@H](C)CN([C@H](C)CO)C2=O
14% | O=C(Oc1ccc(Cl)cc1)c1ccc(N2CCOCC2)c([N+](=O)[O-])c1
10% | COc1ccccc1NC(=O)Cc1nnc(SCC(=O)Nc2ccc(F)cc2F)n1C
-10% | COC(=O)c1c(C(=O)OC)c(-c2ccc(F)cc2)n2c1CSC2
-17% | COC(=O)c1c(NC(=O)CN2CCN(c3ncccn3)CC2)sc(C(N)=O)c1C
15% | COc1ccc2[nH]c3c(=O)n(/N=C/[C@H]4C(C)C=C(C)CC4C)c(=O)[nH]c3c2c1 (stereo not given in full)
0% | O=C(O)Cn1c(=O)cnc2ccccc21
9% | O=C(NC1CC(=O)N(c2cccc(F)c2)C1)C1CC1 (stereo not given)
2% | O=C(NCC(c1cccnc1)N1CCc2ccccc21)c1cccc(Br)c1 (stereo not given)
5% | CC(C)(C)OC(=O)N/N=C\c1cccnc1
11% | Cc1nc(C)c(C(=O)Nc2cccc(Cl)c2)o1
15% | COc1ccc(-c2nn(-c3ccccc3)cc2C(=O)NC2CCC(C)CC2)cc1 (stereo not given)
-11% | COc1ccc(/C=N/NC(=S)Nc2ccccc2)cc1COc1cccc(C)c1C
-2% | NS(=O)(=O)c1ccc(CCNC(=O)CCCNC(=O)c2ccc(Cl)cc2)cc1
-19% | O=CNCCCc1nc2ccccc2n1CCc1ccccc1
-11% | CC(=O)O/N=C/c1c(N2CCOCC2)n(C)c2ccccc12
-18% | CC(=O)Oc1ccc2c(=O)c(-c3ccccc3)coc2c1
-5% | CC(C)Cn1c(-c2cc([N+](=O)[O-])ccc2Cl)nc2c1c(=O)[nH]c(=O)n2Cc1ccccc1
-4% | CCN(CC)c1ccc(/C=N/NC(=S)NCc2ccccc2)cc1
7% | O=C(c1cc(F)c(F)c(F)c1F)N1CCN(C(=O)C2CCCO2)CC1 (stereo not given)
-7% | O=C(NNC(=O)c1ccc(Cl)c([N+](=O)[O-])c1)c1ccncc1
-12% | COCCNc1nc2c(c(=O)n(Cc3ccccc3F)c(=O)n2C)n1C
-14% | C=CCOc1nc2c(c(=O)n(C)c(=O)n2C)n1Cc1ccc(Cl)cc1
? | Cc1nc(N=Nc2ccc(S(=O)(=O)O)cc2S(=O)(=O)O)c(COP(=O)(O)O)c(C=O)c1O
0% | CC1Cc2cc(-c3csc(NC(=O)Cc4cccs4)n3)ccc2N1S(C)(=O)=O (stereo not given)
-7% | CC(C)C[C@@H](CO)N1CCN(Cc2ccc([N+](=O)[O-])cc2)CCC1=O
4% | CCN(Cc1ccncc1)C(=O)c1cc(COc2ccc(C)c(C)c2)on1
-9% | CCC(CC)C(=O)c1c[nH]c(C(=O)NCc2ccco2)c1
-3% | c1ccc(Nc2cc(Nc3ccccc3)[nH]n2)cc1
11% | O=C(Nc1nccs1)C(c1ccccc1)N1CCCCC1 (stereo not given)
-6% | CC(CC(=O)O)CC(=O)Nc1ccccc1C(=O)O (stereo not given)
-21% | COCCCn1c(SCC(=O)n2c(C)c(C)c3ccccc32)nnc1-c1ccoc1C
18% | CN1CCCC1CCNc1ccc2oc3ccccc3c(=O)c2c1 (stereo not given)
-16% | N#Cc1nc(-c2cccs2)oc1N1CCN(Cc2ccccc2)CC1
8% | CCn1c(SCC(=O)Nc2cccc(C)c2)nc2ccccc2c1=O
6% | COc1ccc(NC(=O)CN2C(=O)NC(C)(C3CC3)C2=O)c(OC)c1 (stereo not given)
-1% | COc1ccc(NC2=Nc3ccccc3CC2)cc1
-8% | Cc1ccc(N(C)S(=O)(=O)c2c(C)noc2/C=C/N(C)C)cc1
1% | Cc1ccc(S(=O)(=O)N2CCc3cc4c(cc3C2C)OCCCO4)cc1 (stereo not given)
-29% | Cc1cccc(OCc2n[nH]c(=S)n2Cc2ccccc2)c1
-6% | Cc1cc(C)n2cc(CSc3ccc(Br)cc3)nc2n1

2 entries from above, as a markdown table.
| mol | VDR inh |
| --- | --- |
| CCc1ccc(N2CCN(S(=O)(=O)CC34CCC(CC3=O)C4(C)C)CC2)cc1 (stereo not given) | 4% |
| COc1ccc(N(C(C)C(=O)NCCSCc2cccc(Cl)c2)S(C)(=O)=O)cc1 (stereo not given) | -9% |

A portion from further up, for reference:
VDR inh | canonical_smiles
-21% | COCCCn1c(SCC(=O)n2c(C)c(C)c3ccccc32)nnc1-c1ccoc1C
18% | CN1CCCC1CCNc1ccc2oc3ccccc3c(=O)c2c1 (stereo not given)
-16% | N#Cc1nc(-c2cccs2)oc1N1CCN(Cc2ccccc2)CC1
8% | CCn1c(SCC(=O)Nc2cccc(C)c2)nc2ccccc2c1=O

(list continues)
VDR inh | canonical_smiles
6% | COC(=O)C1=CN(c2cccc(C)c2)C=C(C(=O)OC)C1c1cc(OC)c(O)c([N+](=O)[O-])c1
0% | CN(C)S(=O)(=O)Nc1ccc2c(c1)Cc1ccccc1-2
10% | CCCCNC(=O)NS(=O)(=O)c1ccc(C(=O)OC)o1
-5% | CCOC(=O)C1(CCc2ccccc2)CCN(Cc2nccn2CC)CC1
3% | Cn1c(=O)c2c(n(Cc3ccccc3)c1=O)NC(=O)C2CC(=O)O (stereo not given)
-6% | Cc1ccc(Nc2c([N+](=O)[O-])cc(C(=O)N3CC(=O)Nc4ccccc43)cc2[N+](=O)[O-])c(C)c1
9% | Cc1ccc(Cn2c(=O)n(-c3ccc(C)c(C)c3)c(=O)c3c(C)c(C)sc32)cc1
-3%&-15% | CCOC(=O)c1cc2c(=O)n3cccc(C)c3nc2n(Cc2ccco2)c1=NC(=O)c1ccccc1
-24% | Cc1ccc(SC[C@H](Cc2ccccc2)N2CCN(CC(C)C)CCC2=O)cc1
16% | COc1ccc(Cl)cc1-c1n[nH]c(=S)n1C
-18% | CN(C)/C=C1\Cc2ccccc2C1=O
9% | O=C(NCC(=O)N1CCN(Cc2ccccc2)CC1)c1ccc(Br)o1
6% | CC(Sc1ncccn1)C(=O)NC1(C#N)CCCCC1 (stereo not given)
7% | CC1CCCCC1NC(=O)c1ccc(S(=O)(=O)N2CCCC2)cc1 (stereo not given)
-3% | Cn1c(=O)n(C/C=C/c2ccccc2)c(=O)c2c1nc1n2CCN1c1ccc(Cl)cc1
5% | CC(OC(=O)CCCNC(=O)c1ccc(Cl)cc1)C(=O)N(C)Cc1ccccc1 (stereo not given)
-9% | Cn1c(=O)c2c(nc(Oc3ccc4c(c3)OCO4)n2Cc2ccc(F)cc2)n(C)c1=O
2% | COc1ccc(OC)c(C2CC(=O)C3=C(C2)NC(=O)CC3c2ccc(O)c(OC)c2)c1 (stereo not given)
-1% | CCO[C@@H]1OC(C(=O)N2CCOCC2)=C[C@H](c2ccccc2)[C@H]1CCCO
16% | CC[C@@](C)(NS(=O)(=O)OCC(Cl)(Cl)Cl)c1ccccc1
8% | CCC(=O)NCCc1nc2cc(NC(=O)c3ccccc3OC)ccc2n1C
-13% | COc1cc(CNCCN(C)C)c(Br)cc1OCC(=O)NCc1ccccc1
-8% | COc1ccc(CNC(=S)Nc2ccc(OC)cc2)cc1
6%&-24% | Cc1c(NC(=O)c2cc(-c3ccc(F)cc3)on2)c(=O)n(-c2ccccc2)n1C
2% | CCOc1ccccc1OCC(=O)Nc1ccc(Cl)cc1Cl
-6% | O=C(c1ccco1)N1CCN=C1SCc1ccc(F)cc1
19% | COc1cccc(-c2nnc(SCC(=O)Nc3ccc(S(N)(=O)=O)cc3)n2C)c1
10% | O=S(=O)(NCc1ccccc1)c1ccc(S(=O)(=O)N(Cc2ccccn2)C2CCCC2)cc1

Bioassay records deposited in PubChem by National Center for Advancing Translational Sciences (NCATS).
